# Screening data as filed in PubChem BioAssay.
# HPGD block: inhibitors of human 15-hydroxyprostaglandin dehydrogenase (HPGD); P15428; purified HPGD, NADH fluorescence kinetic, PGE2 substrate; Potency, µM, for inactives: at the highest dose activity change, negative = inhibition, usual class: inhibitors; 150,000 tested, 4.3% active; active = well fitted inhibition curve with a large enough effect (not every such curve was filed as active); inconclusive = small, poorly fitted or top-dose-only effect, or another doubt; inactive = no such curve, though single readings can be large or run the other way;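 further: top concentration of the series not given in the record; plate controls included wells without enzyme; inactives centre near -10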
# Target sequence (P15428 whole entry, looked up): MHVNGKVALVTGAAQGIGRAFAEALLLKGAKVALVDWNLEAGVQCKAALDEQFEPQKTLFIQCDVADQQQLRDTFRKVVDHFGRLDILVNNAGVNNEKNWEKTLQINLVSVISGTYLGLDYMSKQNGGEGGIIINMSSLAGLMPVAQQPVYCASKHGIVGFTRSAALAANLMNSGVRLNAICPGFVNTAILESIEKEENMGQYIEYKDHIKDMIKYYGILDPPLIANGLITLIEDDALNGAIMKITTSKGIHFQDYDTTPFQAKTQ
#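 20 nM HPGD preincubated 15 min at room temperature with compound in 50 mM Tris-HCl pH 8, 0.01% Tween 20. Started with 1 mM NAD+ and 30 uM prostaglandin E2; NADH fluorescence (360/450 nm) read 5 times over 30-s intervals, last minus first.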
# * = called active by the depositor; ? = inconclusive; & = joins results of further samples; ! = a repeat was not active. On the % scale 0 is the no-effect control and ±100 the full control effect; potency means the concentration at half of the fitted maximal effect.
No.	compound	HPGD block
1	CCOC(=O)c1nc2ccccc2c(=O)n1-c1cccc(C)c1	-12%
2	COc1ccc(C(CC(=O)N2CCC3(CC2)OCCO3)NS(=O)(=O)c2ccc(F)cc2)cc1 (stereo not given)	-8%
3	CCCCC/C=C\C/C=C\C/C=C\C/C=C\CCCC(=O)N[C@H](C)CO	-1%&-6%
4	Cc1noc(C(=O)Nc2sc3c(c2C#N)CCC3)c1Cl	25µM*
5	O=C1CN(C(=O)CN2CCCCC2)C(c2ccccc2)c2cc(Br)ccc2N1 (stereo not given)	-6%
6	COC[C@]12CN(C=O)C3C4C(OC)C1[C@@]3(C1CC3(O)C(OC)C(O)C4(OC(C)=O)C1C3OC(=O)c1ccccc1)[C@@H](OC)CC2O (stereo not given in full)	-13%
7	Cc1ccc(N)cc1C	-2%
8	COCCn1c(SCc2ccccc2Cl)nc2c1c(=O)[nH]c(=O)n2C	?
9	C[N+](C)(C)Cc1ccccc1	-14%&0%
10	CC1=NN(c2ccccc2)C(=O)/C1=C/c1c(O)[nH]c(=S)[nH]c1=O	20µM*
11	CCCn1c(C)c(C(=O)c2cccc3ccccc23)c2ccccc21	?
12	CSc1ncc(/C=C2/C(=O)NC(=O)N(c3ccc(C(C)C)cc3)C2=O)cn1	?
13	COc1cc2c(cc1OC)-c1c(OC)c(OC)cc3c1[C@H](C2)[N+](C)(C)CC3	-24%
14	Cc1ccc(N=CN(C)C=Nc2ccc(C)cc2C)c(C)c1	-5%
15	COC(=NC1CCCCC1)C(O)c1c[nH]c2ccccc12 (stereo not given)	-11%
16	c1ccc(C(OCCN2CCNCC2)c2ccccc2)cc1	2%
17	CCCCCCn1c(O)c(C(C)=NC)c(=O)[nH]c1=O	-9%
18	CN1Cc2cccnc2N(C)Cc2cc(Cl)ccc21	-7%
19	CCOC(=O)C1(c2ccccc2)CCN(Cc2cccc(C(=O)O)c2)CC1	2%
20	CC#CP(=O)(OC)C(O)(CF)c1ccccc1 (stereo not given)	-17%
21	CC(Cc1ccccc1Sc1ccccc1O)N(C)C (stereo not given)	-3%
22	O=C1Nc2ccccc2/C1=C/c1cnc[nH]1	-16%
23	CC(C)C1(C)N=C(c2ncccc2C(=O)O)NC1=O (stereo not given)	-10%
24	COc1ccc2c(c1)/C(=C/c1cnc[nH]1)C(=O)N2	-7%
25	CN(C)c1ccc(/C=C/[N+](=O)[O-])cc1	-20%
26	CCn1c(=N)n(Cc2ccccc2F)c2ccccc21	-15%
27	Cc1ccccc1C1=NCC(=S)Nc2ccc(Cl)cc21	-15%
28	Nc1ccc(C2(c3ccc(N)cc3)CN3CCC2CC3)cc1	-8%
29	C[C@@H](Cc1ccc(O)cc1)NC[C@@H](O)c1cc(O)cc(O)c1	3%
30	CCN1CC2(COC(=O)c3ccccc3N)CCC(OC)C34C5CC6C(OC)CC(O)(C5C6OC)C(O)(C(OC)C23)C14 (stereo not given)	?

# 16 entries already listed, arranged by molecular weight, low to high:
No.	compound	HPGD block
7	Cc1ccc(N)cc1C	-2%
9	C[N+](C)(C)Cc1ccccc1	-14%&0%
24	COc1ccc2c(c1)/C(=C/c1cnc[nH]1)C(=O)N2	-7%
26	CCn1c(=N)n(Cc2ccccc2F)c2ccccc21	-15%
16	c1ccc(C(OCCN2CCNCC2)c2ccccc2)cc1	2%
27	Cc1ccccc1C1=NCC(=S)Nc2ccc(Cl)cc21	-15%
29	C[C@@H](Cc1ccc(O)cc1)NC[C@@H](O)c1cc(O)cc(O)c1	3%
1	CCOC(=O)c1nc2ccccc2c(=O)n1-c1cccc(C)c1	-12%
11	CCCn1c(C)c(C(=O)c2cccc3ccccc23)c2ccccc21	?
3	CCCCC/C=C\C/C=C\C/C=C\C/C=C\CCCC(=O)N[C@H](C)CO	-1%&-6%
19	CCOC(=O)C1(c2ccccc2)CCN(Cc2cccc(C(=O)O)c2)CC1	2%
8	COCCn1c(SCc2ccccc2Cl)nc2c1c(=O)[nH]c(=O)n2C	?
12	CSc1ncc(/C=C2/C(=O)NC(=O)N(c3ccc(C(C)C)cc3)C2=O)cn1	?
5	O=C1CN(C(=O)CN2CCCCC2)C(c2ccccc2)c2cc(Br)ccc2N1 (stereo not given)	-6%
2	COc1ccc(C(CC(=O)N2CCC3(CC2)OCCO3)NS(=O)(=O)c2ccc(F)cc2)cc1 (stereo not given)	-8%
30	CCN1CC2(COC(=O)c3ccccc3N)CCC(OC)C34C5CC6C(OC)CC(O)(C5C6OC)C(O)(C(OC)C23)C14 (stereo not given)	?

# (further entries)
No.	compound	HPGD block
31	COc1ccccc1CCNC1CCCC(C)C1 (stereo not given)	-6%
32	Nc1ccc(Cl)cc1C(=O)c1ccccc1Cl	-9%
33	Cc1ccc(-n2c(O)c(/C=N/N3CCCCC3c3cccnc3)c(=O)[nH]c2=S)cc1 (stereo not given)	?
34	C[C@@H]1NCCc2cc(O)c(O)cc21	-13%
35	CC(C)CC(=O)C[C@H](O)C(Cl)(Cl)Cl	-12%
36	CCOC(=O)c1c(-n2c(C)cc(C=C3C(=O)NC(=O)NC3=O)c2C)sc2c1CCCC2	-17%
37	CC1CCCN(C(=O)c2ccc(N3CC4CC(C3)c3cccc(=O)n3C4)c([N+](=O)[O-])c2)C1 (stereo not given)	18µM*
38	O=C(c1ccccc1)c1cn(CC(=O)N2CCCc3ccccc32)c2ccccc12	?
39	Cc1ccc(-c2nc3ccc(C)cn3c2CC(=O)N(C)C)cc1	?
40	C[C@H](N)Cc1cnc[nH]1	1%
41	CC1=CC(=O)c2c(O)cccc2C1=O	25µM*!
42	COc1cc2cc(c1Cl)N(C)C(=O)C[C@H](OC(=O)C(C)C)[C@]1(C)O[C@@H]1[C@@H](C)[C@H]1C[C@](O)(NC(=O)O1)[C@@H](OC)/C=C\C=C(\C)C2	-4%
43	COC(C)(C)CCCC(C)C/C=C/C(C)=C/C(=O)OC(C)C (stereo not given)	-8%&-5%
44	OCC(O)Cc1ccc2c(c1)OCO2 (stereo not given)	-3%
45	O=[N+]([O-])OC1CO[C@H]2C(O[N+](=O)[O-])COC12 (stereo not given in full)	-8%
46	CC(=O)N[C@@H]1CCSC1=O	-5%
47	CCCN(CCC)C1Cc2cc(OC)c(OC)cc2C1	-17%&-11%
48	CNC(=O)O/N=C/C(C)(C)S(C)=O (stereo not given)	-10%
49	C1CCC2CCCCC2C1 (stereo not given)	-4%
50	COC(=O)c1c(C)n(Cc2ccc3c(c2)OCO3)c2ccc(O)cc12	-8%
51	C=CC1CN2CCC1CC2C(O)c1ccnc2ccccc12 (stereo not given)	-11%&-19%
52	O=P(O)(O)CCP(=O)(O)O	-6%
53	O=c1[nH]c(SCc2ccccc2Cl)nc2c1CCCC2	2µM*
54	COc1ccc(C(C)=O)cc1CC(C(=O)c1ccc(F)cc1)N(C)C (stereo not given)	-19%
55	COC(=O)C(O)(c1ccc(N(C)S(=O)(=O)c2ccccc2)cc1)C(F)(F)F (stereo not given)	-3%
56	N#CSCC(=O)N1c2ccccc2CCc2ccccc21	18µM*
57	O=C1NC(=O)[C@]2(Cc3ccccc3N3CCN(c4ccccc4)CC32)C(=O)N1c1ccccc1 (stereo not given in full)	-9%
58	CC(C)(C)c1o[nH]c(=O)c1C[C@H](N)C(=O)O	1%
59	CCOc1ccccc1N1C(=O)NC(=O)C(CCc2ccncc2)(CCc2ccncc2)C1=O	-8%
60	Cc1cc(NC(=O)COC(=O)c2c(C)nn(Cc3ccccc3Cl)c2Cl)no1	-5%

# Exported with each value named: entries from further up
50: COC(=O)c1c(C)n(Cc2ccc3c(c2)OCO3)c2ccc(O)cc12
  HPGD block = -8%
51: C=CC1CN2CCC1CC2C(O)c1ccnc2ccccc12 (stereo not given)
  HPGD block = -11%&-19%

# Following part
No.	compound	HPGD block
61	COc1cccc(C(C#N)N2CCCCC2)c1O (stereo not given)	2.2µM*
62	Oc1c(Br)c(Br)c(Br)c(Br)c1Br	10µM*
63	O=C(Cc1cccs1)N1CCC2(CC1)OCCO2	-5%
64	Cc1nnc2ccc(N3CCN(C)CC3)nn12	-8%
65	C=CCSSCC=C	8.9µM*
66	CCC(COC(=O)c1cc(OC)c(OC)c(OC)c1)(c1ccccc1)N(C)C (stereo not given)	-11%&-20%
67	CCSc1nnc([C@@H](N)Cc2ccccc2)o1	-9%
68	Clc1cccc(N2CCNCC2)c1	-17%&-3%
69	CCC1(c2ccccc2)C(=O)N(COC)C(=O)N(COC)C1=O	-12%
70	CN1C2CC3CC1C(O3)C2O (stereo not given)	-8%
71	N[C@H](Cc1c[nH]c2ccccc12)P(=O)(O)O	-6%
72	O=P(O)(O)C12CC3CC(CC(C3)C1)C2	-3%
73	CC(=O)c1ccc2c(c1)C1C(Cl)C(Sc3ccccc3[N+](=O)[O-])CC1C(c1ccccc1[N+](=O)[O-])N2 (stereo not given)	?
74	CCOC(=O)c1c(C)n(Cc2ccccc2)c2ccc(OCC(O)Cn3nc(C)cc3C)cc12 (stereo not given)	-13%
75	OC12ONC(c3ccccn3)C1N1CCC2CC1 (stereo not given)	-1%
76	CN1C(=O)C(O)N=C(c2ccccc2)c2cc(Cl)ccc21 (stereo not given)	-2%
77	C=CCN	-13%
78	O=C(O)c1cc[c]([Hg][S]c2ncnc3nc[nH]c23)cc1	0.22µM*
79	CC1CC(C)C(=O)[C@H](C(O)CC2CC(=O)NC(=O)C2)C1 (stereo not given in full)	-2%
80	CCN(C(=O)Oc1ccccc1)c1ccc(C(O)(C(=O)OC)C(F)(F)F)cc1 (stereo not given)	-13%
81	CC(C)C#N	-14%
82	CCOc1ccc(-n2c(O)c(C=NCCN3CCNCC3)c(=O)[nH]c2=O)cc1	-9%
83	CCC1CCCCN1P(=O)(c1ccc(C)o1)C(C)(C)C (stereo not given)	-8%
84	Cc1ccc(N)cc1Cl	0%
85	CCCCn1c(O)c(/C(CC)=N/N2CCCCC2c2cccnc2)c(=O)[nH]c1=S (stereo not given)	-7%
86	CCCCCCC(C)(C)c1cc(OC)c2c(c1)OC(C)(C)[C@@H]1CC=C(C)C[C@@H]21	-6%
87	CCN1C(=O)C(=Cc2ccc(C)s2)C(=O)N(CC)C1=S	8.9µM*
88	CN(C)C1=NP(N(C)C)(N(C)C)=NC(c2ccccc2)=N1	-4%
89	O=c1[nH]c(=O)n(Cc2ccco2)c(O)c1/C=N/N1CCCCC1	-19%
90	CNC(=O)Oc1cccc2ccccc12	-14%

# The results go on.
No.	compound	HPGD block
91	CC(O)CNc1ccc([N+](=O)[O-])c2cccnc12 (stereo not given)	-16%
92	CC(=O)OC1CC[C@]2(C)C(CCC3C2CC[C@]2(C)C(C4=CC(=O)OC4)C(OC(C)=O)CC32O)C1 (stereo not given in full)	-5%
93	Brc1c(Br)c(Br)c2n[nH]nc2c1Br	?
94	COc1ccc(CCN(C)Cc2c(F)cccc2F)cc1OC	2%
95	Cc1cc(S(=O)(=O)NCC(C)C)ccc1OCC(=O)N1CCN(Cc2ccccc2)CC1	-13%
96	COc1ccc(C(=O)N2CCOCC2)cc1S(=O)(=O)N1CCC(C)CC1	-5%
97	C=CCn1c(O)c(C(CC)=NC2CC2)c(=O)[nH]c1=O	-6%
98	Cc1cc2c(C(F)(F)F)cc(=O)oc2c2c1NCCC2	-5%
99	COc1cc(/C=C(/C)[N+](=O)[O-])ccc1OCc1ccccc1Cl	10µM*
100	Cc1ccccc1C(=O)NNC(=S)NC(=O)COc1ccccc1	25µM*
101	O=Cc1cn(Cc2ccccc2[N+](=O)[O-])c2ccccc12	-12%
102	O=S(=O)(c1ccccc1)N1CC1c1ccccc1 (stereo not given)	-9%
103	Cc1cc(S(=O)(=O)NCc2ccccc2)ccc1OCC(=O)N1CCN(C)CC1	-17%
104	O=C1C2CC=CCC2C(=O)N1SC(Cl)(Cl)Cl (stereo not given)	7.1µM*
105	C[C@]1(O)CC[C@H]2[C@@H]3CCC4=CC(=O)CC[C@]4(C)[C@@]3(F)[C@@H](O)C[C@@]21C	-8%
106	O=C1NC(=O)C(CCc2ccncc2)(Cc2ccc([N+](=O)[O-])cc2)C(=O)N1	-12%
107	CC(C)(C)c1nc(N2CCN(C(=O)c3ccco3)CC2)c2nnn(Cc3ccccc3Cl)c2n1	-16%
108	CCC(=NCCCN(CC)CC)c1c(O)n(-c2ccccc2)c(=O)[nH]c1=O	-7%
109	Nc1cccc2c(N)cccc12	?
110	CN(C)CS/C(N)=N/[C@H](O)C(Cl)(Cl)Cl	-10%
111	OCCN(CCO)CCO	-2%
112	CN(C)C1=NC(N(C)C)=NP(N(C)C)(N(C)C)=N1	1%
113	Nc1ccc(S(=O)(=O)N2CCCCC2c2cccnc2)cc1 (stereo not given)	-6%
114	O=P(O)(O)C(Cl)(Cl)P(=O)(O)O	-7%
115	CN(C)P1(N(C)C)=Nc2c(c(N)nn2C)C(c2ccccc2)=N1	-5%
116	Cc1ccc(Cl)cc1N1CCN(C(=O)c2cn(C)c(=O)c3c2c2ccccc2n3C)CC1	?
117	Cc1cc(C=O)c(C)n1CC1CCCO1 (stereo not given)	-11%
118	CC(C)CN1CC2(CCN(C(=O)c3ccncc3)CC2)C1	-1%
119	COc1ccc(CCN)cc1O	-17%
120	Cc1c(N=Nc2c(O)n(C)c(=O)n(C)c2=O)c(=O)n(-c2ccccc2)n1C	-12%

# (list continues)
No.	compound	HPGD block
121	CCOC(C(=O)OCCCN(CC)CC)(c1ccccc1)c1ccccc1	2%
122	COC(=O)c1cc2c(s1)=NC=NP=2(N1CCOCC1)N1CCOCC1	?
123	N[C@@H](Cn1cc(I)c(=O)[nH]c1=O)C(=O)O	-4%&-5%
124	C[C@@H]1O[C@@H](O[C@H]2C[C@@H](O)[C@]3(CO)[C@H]4[C@H](O)C[C@]5(C)[C@@H](C6COC(=O)C6)CC[C@]5(O)[C@@H]4CC[C@]3(O)C2)[C@H](O)[C@H](O)[C@H]1O (stereo not given in full)	-9%
125	COc1cc(/C=N/NP(=S)(c2ccccc2)c2ccccc2)ccc1O	-21%
126	CN1C(=O)C(Cc2cccs2)C(=O)N(C)C1=O	-8%
127	O=C(Oc1ccc(S(=O)(=O)F)cc1F)c1ccccc1Cl	-14%

# Only part of the results is shown. The share of hits here may be higher or lower than overall.
